B2AR ag = human beta-2 adrenergic receptor agonism by FAP | P07550 | Am2.2-beta2AR cells, FAP receptor internalization, flow cytometry; reference of the scale not given here | response, % (no concentration beside the values) | hit rate 0.43% among 340,000 | AID 504454;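 active = response above a set limit, near 3 SD of response in nonfluorescent compounds, cut at about 42% in these data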;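 also: stock transfer was 100 nL into about 11 µL; a reference agonist was the positive control; negative values mostly stem from fluorescent compounds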
Ecoli growth = inhibitors of Escherichia coli growth; OD600, 23 h; hits give low values; OD600 absorbance (test concentration not listed); hit rate 0.21% among 330,000; AID 1053175;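 active = OD600 absorbance below the run mean of sample wells minus 3.6 SD, in any replicate, cut at about 0.56 in these data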;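 also: stock transfer was 300 nL into about 60 µL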
Vif TR-FRET = HIV-1 Vif–A3G interaction blockers – biochemical, TR-FRET, GST-Vif 1-94, biotin-A3G peptide, dose response retest, primary screen (AID 1117319); TR-FRET GST-Vif / biotin-A3G peptide binding; higher % means a stronger effect; test concentration not given here; strong numbers were not always called active; inhibition, %, or IC50 in µM where a hit was titrated; hit rate 0.57% among 260,000;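 active = above the screen mean plus three standard deviations and confirmed in dose response; inconclusive = results disagree or hit not tested in dose response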;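 also: Vif residues 1-94 fused to GST binding biotinylated APOBEC3G peptide 110-148; 0% = full assay without inhibitor and 100% = GST in place of GST-Vif; retest series ran down from 100 µM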
UCH37 DUB inh = human UCH37 deubiquitinating enzyme inhibition; inhibition, % (no concentration beside the values); purified proteasome/UCH37, Ub-AMC cleavage fluorescence; AID 588478; hit rate 0.33% among 330,000; Q9Y5K5;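 active = mean of two replicates above 20%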;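 also: 0% = compound-free wells with enzyme and 100% = wells lacking proteasome; stock transfer was 100 nL into about 20 µL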
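Schedule: 30 min plus 25 min, room temperature / Material: human UCH37 within purified proteasomes / Technique: AMC fluorescence intensity at 355/460 nm / Buffer or medium: pH 7.4 Tris-HCl (50 mM) with ovalbumin, ATP-MgCl2, DTT / Controls: wells without proteasome as full block, compound-free enzyme plus substrate as uninhibited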
LANA-H2A inh = blocks KSHV LANA binding to histone H2A/H2B. cell-free LANA-H2A/H2B peptide, fluorescence polarization. hit rate 0.6% among 320,000. Q9QR71. inhibition, % (no concentration beside the values); in the data active = inhibition mostly above about 10%, no sharp cut-off; inactive = mostly below about 6.7%;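 also: stock transfer was 7.5 nL into about 10 µL; 0% = median of vehicle wells and 100% = median of positive control wells; one replicate is shown; the record names a cut of 25% in any replicate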
Target sequence (Q9QR71 whole entry, looked up): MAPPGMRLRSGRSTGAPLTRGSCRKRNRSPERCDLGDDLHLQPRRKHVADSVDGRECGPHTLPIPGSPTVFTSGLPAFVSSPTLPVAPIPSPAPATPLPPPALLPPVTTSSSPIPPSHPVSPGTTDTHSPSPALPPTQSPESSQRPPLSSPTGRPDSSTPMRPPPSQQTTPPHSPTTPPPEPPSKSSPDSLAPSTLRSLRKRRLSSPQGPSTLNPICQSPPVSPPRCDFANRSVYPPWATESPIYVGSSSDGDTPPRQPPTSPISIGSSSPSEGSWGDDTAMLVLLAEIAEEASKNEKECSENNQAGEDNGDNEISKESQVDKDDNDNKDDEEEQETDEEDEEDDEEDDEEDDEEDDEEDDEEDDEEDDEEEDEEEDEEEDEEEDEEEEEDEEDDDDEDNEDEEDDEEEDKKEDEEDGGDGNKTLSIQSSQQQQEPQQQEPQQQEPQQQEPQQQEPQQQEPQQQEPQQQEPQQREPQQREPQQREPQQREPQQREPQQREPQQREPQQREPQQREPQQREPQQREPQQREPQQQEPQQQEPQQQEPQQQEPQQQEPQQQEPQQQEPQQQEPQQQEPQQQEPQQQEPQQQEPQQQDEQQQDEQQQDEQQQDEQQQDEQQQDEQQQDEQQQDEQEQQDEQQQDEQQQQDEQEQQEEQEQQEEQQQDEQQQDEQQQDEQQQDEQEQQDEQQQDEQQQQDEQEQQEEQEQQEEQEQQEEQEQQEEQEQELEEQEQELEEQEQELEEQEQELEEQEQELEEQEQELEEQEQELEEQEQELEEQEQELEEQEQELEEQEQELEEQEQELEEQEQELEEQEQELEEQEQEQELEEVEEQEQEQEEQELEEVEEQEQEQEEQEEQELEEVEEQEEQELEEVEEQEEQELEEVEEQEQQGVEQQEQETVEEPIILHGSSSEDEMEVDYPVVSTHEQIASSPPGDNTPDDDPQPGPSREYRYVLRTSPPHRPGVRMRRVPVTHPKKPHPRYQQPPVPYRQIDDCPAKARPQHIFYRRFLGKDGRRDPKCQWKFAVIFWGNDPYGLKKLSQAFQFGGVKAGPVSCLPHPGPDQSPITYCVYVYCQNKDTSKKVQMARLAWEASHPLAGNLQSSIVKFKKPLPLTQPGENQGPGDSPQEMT
HNF4A DNA FP = change in binding of human HNF4 alpha to DNA | P41235 | HNF4a-FITC DNA binding, fluorescence polarization, 1 h | activity change, % at 10 µM | hit rate 0.3% among 360,000; in the data active = activity change above about 30%, passing the limit was not always enough;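 also: controls were the assay level and a saturating level of protein; the project sought stronger binding though the title names inhibitors; some compounds called inactive have numbers as strong as hits; positive values seem to mean higher polarization but the record does not say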
A1 inh = inhibitors of the anti-apoptotic protein A1, read as caspase activation | MEF A1-2A-BIM cells, Caspase-Glo 3/7 luminescence, 3 h; percent of clofoctol response, vehicle zero | caspase activation, % (concentration not given with the values) | hit rate 0.066% among 330,000;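 active = over half of replicate activation scores above 10%, or exactly half above 10 with the replicate mean above 10; inconclusive = replicate mean below 10 yet half the replicates above 10; inactive = over half of replicates below 10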;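 also: wells of about 30 µL received 50 nL stock; many hits fall short of the cut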
The depositor's hits bear a star; i = inactive; ? = inconclusive; . = no result given.

SMILES	B2AR ag	Ecoli growth	Vif TR-FRET	UCH37 DUB inh	LANA-H2A inh	HNF4A DNA FP	A1 inh
O=C(COC(=O)[C@@H]1CCCN1C(=O)c1cccs1)Nc1cccc(Cl)c1	3	0.66	.	4.0	0.9	-2.4	0.1
COc1ccccc1NC(=O)C(=O)NCC(c1ccco1)N1CCc2ccccc2C1 (stereo not given)	2	0.73	0%	0.9	-3.2	-1.4	-0.5
C=CCCO[C@@H]1O[C@@H](C)[C@H](O)C[C@H]1O	3	.	.	-0.1	0.7	4.6	-1.0
CCCc1nc2sc3ccccc3c(=O)c2c(=O)n1Cc1ccc(OC)cc1	-6	0.72	-2%	5.1	4.2	1.3	-0.2
Cc1ccc(SCC(=O)Nc2cccc(C(=O)NC(C)(C)C)c2)cc1	9	0.7	-3%	1.2	0.1	1.7	0.2
O=C(C1CCCO1)N1CCN(C(=S)Nc2cc(F)cc(F)c2)CC1 (stereo not given)	4	0.68	.	3.3	1.3	-5.0	1.1
C=C(C)CNC(=S)N/N=C1\CCCCc2ccccc21	1	.	.	.	-6.9	0.7	0.2
Nc1ccccc1C(=O)N/N=C1\C2CN3CCN(C2)CC1(c1ccccc1)C3	-3	.	7%	.	2.5	1.7	-0.3
CNc1nc(-c2c(C)[nH]c3ccc(OC)cc23)cs1	60*	0.67	12%	2.9	-2.1	0.4	1.1
CCOc1ccc2sc(NS(=O)(=O)c3ccc(OC)c(OC)c3)nc2c1	4	0.67	3%	2.7	4.8	-0.3	0.2
COc1cccc(NC(=O)C(=O)NCc2ccncc2)c1	1	0.66	-6%	0.7	0.4	-0.1	0.3
S=C(Nc1ccc(Cl)cc1)Nc1ccc2cn[nH]c2c1	5	0.61	-2%	-1.8	-2.1	-3.2	0.3
S=C1NC(c2ccccc2)=NCN1c1ccccc1	-5	0.65	-1%	2.8	4.0	0.7	0.9
CC1CCCCC1NC(=O)c1cc2c(=O)n3ccccc3nc2n1C (stereo not given)	-1	0.69	.	i	-2.2	0.2	0.4
CC1CCCCC1NC(=O)COC(=O)Cc1ccc(Cl)cc1 (stereo not given)	-1	0.7	.	3.5	.	2.0	.
CCN(c1ccccc1)S(=O)(=O)c1ccc2[nH]c(=O)c(=O)[nH]c2c1	5	0.65	3%	5.2	1.0	-1.7	-0.1
CC1Cc2ccccc2N1C(=O)c1cccnc1 (stereo not given)	-21	0.66	0%	0.8	5.5	1.2	0.5
O=C1CN(C(=O)COC(=O)C2CCN(S(=O)(=O)c3ccccc3C(F)(F)F)CC2)c2ccccc2N1	-5	0.65	0%	1.9	-0.2	1.0	0.1
COc1ccc(C2(CNC(=O)Cc3ccc(OC)c(OC)c3)CCCC2)cc1	11	0.71	-7%	4.3	0.1	-2.5	0.7
Cc1ccc(S(=O)(=O)N(C)c2ccccc2C(=O)Nc2ccc(F)cc2F)cc1	-13	0.66	.	1.7	-0.2	0.9	1.8
O=C(Cn1cccc1)Nc1ccc(F)cc1F	9	0.7	13%	2.4	3.5	-4.1	0.5
CCCS(=O)(=O)n1nc(-c2ccc(OC)cc2)cc1N	-3	0.72	3%	3.9	-1.5	0.8	0.0
O=C(N/C=C/n1cnc2cc(C(F)(F)F)ccc21)c1ccccc1F	0	0.7	1%	7.4	2.2	5.9	1.3
CC(C)(C)N(Cc1ccccc1)C(=O)COC(=O)c1ccc(S(=O)(=O)N2CCOCC2)cc1	0	0.68	-4%	2.9	-0.5	2.0	2.2
Cc1cc(/C=C2/NC(=O)N(Cc3ccccc3F)C2=O)c(C)n1C	5	.	8%	.	-1.1	-0.8	0.5
COc1ccc(NS(=O)(=O)c2ccc(C)c(C(=O)NCC(c3ccco3)N3CCCCC3)c2)cc1 (stereo not given)	-3	0.63	-1%	-0.9	0.0	3.1	0.0
CCN(CC)S(=O)(=O)c1ccc(N(C)Cc2cccnc2)nc1	3	0.73	?	1.4	-7.7	-2.4	-0.7
COc1ccccc1N1CCN(C(=O)c2cc3sccc3n2C)CC1	-6	0.68	?	5.6	-4.5	4.3	-1.2
CCOC(=O)Nc1ccc2c(c1)N(C(=O)N1CCN(C)CC1)c1ccccc1S2	5	0.66	12%	6.6	6.3	-1.1	-0.7
O=C(O)CN1CCN(Cc2cccc(Cl)c2)C1=O	-3	0.68	0%	0.8	0.2	1.9	1.2
Cc1ccc(NC(=O)C(=O)NN)cc1	-6	0.72	-2%	1.8	2.6	3.3	0.0
O=C(Cc1ccc(-c2ccccc2)cc1)NC1CCCC1	-7	0.71	-4%	2.8	4.4	3.1	-0.2
COc1ccc(N(CC(=O)N2CCOCC2)S(C)(=O)=O)c(OC)c1	-8	0.61	.	1.7	1.9	-1.3	-0.2
N#CCCN(C(=O)COC(=O)CNC(=O)c1cccs1)c1ccc(F)cc1	1	0.64	-9%	-2.5	3.7	3.9	-0.3
CC(C)(CNC(=O)c1ccc(S(=O)(=O)Nc2cccc(C(F)(F)F)c2)cc1)N1CCOCC1	5	0.65	.	-1.7	-0.6	1.0	-0.1
O=C(CSc1nnnn1Cc1ccccc1)NCC(=O)c1ccccc1	4	0.67	11%	3.6	-7.3	-0.3	0.0
Cc1sc(-n2c(C)cc(/C=N/n3cnnc3)c2C)c(C#N)c1C	5	.	6%	.	1.9	1.5	0.3
COc1cccc(N2CCN(C(=O)CN(c3ccc(C)cc3)S(=O)(=O)c3c(C)n[nH]c3C)CC2)c1	3	0.79	5%	4.2	4.0	0.4	1.6
S=C(Nc1ccc(Cl)cc1Cl)NC1CCCCC1	7	0.69	18%	-2.1	-1.9	-1.8	-0.6
CCCC[C@H]1COCCS(=O)(=O)N1Cc1ccc(C)cc1	3	.	.	2.0	-1.5	0.8	-0.4
COc1ccc(C(=O)Nc2ccc(NC(=O)c3cccs3)cc2)cc1Cl	3	0.71	.	4.1	-1.2	-2.3	0.4
COc1ccc2c(-c3ccccc3)cc(=O)[nH]c2c1	-2	0.67	15%	-4.1	2.4	2.3	2.3
CC1CCN(S(=O)(=O)c2csc(C(=O)Nc3ccccc3)c2)CC1	-7	0.7	3%	0.4	6.2	2.9	0.7
C=CCNC(=O)CCCC(=O)NCC=C	-1	0.68	-5%	0.1	6.4	0.3	-0.2
O=C(N/N=C/c1cc(Br)c(Br)s1)c1ccncc1	10	.	16%	.	3.3	-0.1	1.2
COc1ccc(N(Cc2cc3ccccc3[nH]c2=O)S(=O)(=O)c2ccc(C)cc2)cc1	-18	0.7	.	1.6	-0.7	0.6	0.3
O=c1[nH]c2cc3c(cc2cc1CN(CCCO)C(=S)NCc1ccco1)OCO3	7	0.69	13%	-97	-0.9	-7.6	1.1
COC(=O)CSc1nnc(-c2ccc(OC)cc2OC)o1	12	0.68	7%	0.1	-2.3	-1.2	-1.5
CCC(=O)Nc1nc2ccc(NC(C)=O)cc2s1	.	0.7	69%	-0.3	1.1	0.7	-0.5
Cc1ccc(C(=O)N2CCN(C)CC2)cc1S(=O)(=O)N1CCCCC1	9	0.62	-2%	5.2	.	-5.7	.
Cc1ccc(-c2csc(N(Cc3ccccc3)C(=O)COc3ccccc3)n2)cc1	-2	0.69	10%	1.5	-2.1	0.7	-0.4
CN(C(=O)c1ccccc1F)C(c1ccccc1)c1ccccc1	-1	0.71	.	3.1	-6.1	1.9	0.0
Cc1ccc(Cl)cc1NC(=O)NCc1ccccn1	2	0.63	.	0.1	-6.5	-2.7	-0.3
CN(c1ccccc1)S(=O)(=O)c1ccc(C(=O)Nc2nnc(-c3ccco3)o2)cc1	3	0.69	0%	3.4	-0.5	5.7	1.1
CCC(CC)NCC(O)COc1ccc(Br)cc1 (stereo not given)	-4	0.64	.	0.7	0.8	1.5	1.1
COc1cccc2cc(C(=O)CC3(O)C(=O)N(Cc4ccccc4)c4ccccc43)c(=O)oc12 (stereo not given)	-12	0.68	10%	0.9	-0.5	0.8	-0.9
CCN(CC(=O)Nc1c(F)cccc1F)C(=O)c1ccc2ncsc2c1	-2	0.72	-5%	4.9	-5.5	-1.3	0.8
COC(=O)c1ccc(S(=O)(=O)NCc2ccccn2)n1C	-2	0.69	-8%	2.2	1.5	2.1	-0.5
CCc1c(C(=O)NC2CCCc3ccccc32)[nH]c(C)c1C(C)=O (stereo not given)	7	0.67	.	1.2	-0.9	4.4	-2.2
O=C1CN(c2nc(-c3ccccc3)c3ccccc3n2)c2ccccc2N1	-8	0.71	.	-14	-3.5	7.5	0.1

One compound at a time (already shown). Values in the order: B2AR ag	Ecoli growth	Vif TR-FRET	UCH37 DUB inh	LANA-H2A inh	HNF4A DNA FP	A1 inh
`COc1ccc(C(=O)Nc2ccc(NC(=O)c3cccs3)cc2)cc1Cl` in the list: 3	0.71	.	4.1	-1.2	-2.3	0.4
`CCC(CC)NCC(O)COc1ccc(Br)cc1` (stereo not given) in the list: -4	0.64	.	0.7	0.8	1.5	1.1
`COC(=O)CSc1nnc(-c2ccc(OC)cc2OC)o1` in the list: 12	0.68	7%	0.1	-2.3	-1.2	-1.5
`C=CCNC(=O)CCCC(=O)NCC=C` in the list: -1	0.68	-5%	0.1	6.4	0.3	-0.2
`O=C1CN(c2nc(-c3ccccc3)c3ccccc3n2)c2ccccc2N1` in the list: -8	0.71	.	-14	-3.5	7.5	0.1

Continued.
SMILES	B2AR ag	Ecoli growth	Vif TR-FRET	UCH37 DUB inh	LANA-H2A inh	HNF4A DNA FP	A1 inh
Cc1cc(C)cc(NC(=O)NC2CCN(CC(=O)Nc3cccc(Cl)c3C)CC2)c1	-2	0.71	15%	3.6	-0.9	3.2	-0.2
CCC(=O)Nc1cc(Cl)ccc1N1CCN(C(=O)CC)CC1	-3	0.8	1%	1.6	3.2	0.8	-0.3
COC(=O)c1c(NC(=O)c2ccccc2)sc2c1CC(C)(C)NC2(C)C	-11	0.71	6%	-24	0.0	6.7	0.0
CN(C)S(=O)(=O)N1CCc2ccccc21	1	0.73	28%	1.2	-1.0	1.0	-0.2
O=C(Nc1ccccc1C(=O)O)c1cc(S(=O)(=O)N2CCOCC2)cs1	1	0.69	-11%	6.8	-4.7	-2.0	-0.3
COc1cc(C(=O)N2CCN(C/C=C/c3ccccc3)CC2)cc(OC)c1C	8	0.64	?	4.8	1.9	0.8	-1.1
CCN(CC)C(=O)CN(c1cc2c(cc1OC)oc1ccccc12)S(=O)(=O)c1ccccc1	-3	0.78	14%	0.1	.	-1.0	0.4
COc1ccccc1C(=O)Nc1ccc2c(c1)CN(Cc1cnc(C)s1)CC2	28	0.67	2%	3.3	-3.4	0.3	-0.2
O=C(CSCCO)Nc1nccs1	1	0.71	14%	-1.0	-4.5	-2.7	0.4
CCN1CCN(C(c2cccs2)C(C)NS(=O)(=O)c2ccc(F)cc2)CC1 (stereo not given)	11	0.76	-1%	4.4	0.1	-2.4	-0.6
O=C1N/C(=N/N=C/c2ccc(F)cc2)SC1c1ccccc1 (stereo not given)	11	.	3%	.	2.0	3.2	-0.9
C=C(C)C(C)(C#CCN1CCCC1)OC(C)=O (stereo not given)	5	0.68	4%	-0.3	0.5	0.2	1.0
COc1ccc(N=C(c2ccccc2)c2c(C)[nH]n(-c3ccccc3)c2=O)c(OC)c1	-10	0.74	-5%	6.4	4.7	1.4	-0.6
COc1ccc(-c2nnc(SCC(=O)N3CCCC3)o2)cc1OC	.	0.72	.	-0.5	-2.0	.	0.0
CCOC(=O)c1c(C)nc(C)c(C(=O)OCC)c1-c1ccccc1	-1	0.65	9%	-2.1	9.9	0.0	-0.2
Cc1ccc(C(=O)NC2CCN(C(=O)NC3CCCCC3)CC2)cc1	-7	0.7	-1%	-1.5	.	-2.2	.
O=C(c1ccncc1)c1ccc(N2CCN(C3CC(=O)N(Cc4ccccc4)C3=O)CC2)cc1 (stereo not given)	-16	0.79	2%	7.8	-2.6	-2.5	1.2
